CDC25B-CDK2 inh – human CDC25B-CDK2/CyclinA binding inhibition; P30305+P24941; HTRF CDC25B-CDK2/CyclinA binding, anti-His/anti-Flag; active compounds read high; z-score (no concentration beside the values); 94,000 tested, 0.72% active; AID 1259370;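 also: score is relative to mean and SD of negative controls; strong numbers were not always called active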
HIV TAR-Tat – HIV-1 TAR-Tat binding disruption; 100,000 tested, 0.6% active; HIV-1 TAR RNA, Tat peptide displacement FRET; active compounds read high; z-score (no concentration beside the values); AID 1259389;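 also: score is relative to mean and SD of negative controls; some compounds called inactive have numbers as strong as hits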
* marks the source's active call; other numbers are inactive results; & = joins results of further samples.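 The calls were made as follows: active = z-score from 3 up in half or more of its runs; inactive = the rest.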

How did Cn1c(=O)oc2cc(S(=O)(=O)N3CCCC3c3ccccc3F)ccc21 (configuration not stated) do in these assays?
CDC25B-CDK2 inh: -1.4; HIV TAR-Tat: 0.01

What do the screens show for `Cc1cc(N2CCN(c3ccccc3)CC2)n2ncc(-c3ccc(F)cc3)c2n1`?
CDC25B-CDK2 inh: -2.1; HIV TAR-Tat: -0.04

How did CCOc1ccc(-c2nnc3ccc(SC(CC)C(=O)OC)nn23)cc1 (configuration not stated) do in these assays?
CDC25B-CDK2 inh: -2.9

How did Cc1ccc2c(=O)c(C(=O)c3ccc(Cl)cc3)c[nH]c2n1 do in these assays?
HIV TAR-Tat: -1.7

How did CCS(=O)(=O)n1nc(-c2ccc(Cl)cc2)nc1SC do in these assays?
CDC25B-CDK2 inh: -1.9; HIV TAR-Tat: -1.1

How did O=C1CCN(C(=O)c2cc3c(s2)-c2ccccc2S(=O)(=O)C3)CC1 do in these assays?
CDC25B-CDK2 inh: -1.9; HIV TAR-Tat: 0.38

What do the screens show for `CCc1cc(C)cc(OCCOc2cccc(/C=C3\SC(N)=NC3=O)c2)c1`?
CDC25B-CDK2 inh: -1.6

What do the screens show for `Cc1cc(C)cc(NC(=O)CSc2nc3nc(C)ccc3o2)c1`?
HIV TAR-Tat: 2.5

How did CNC(=O)C1CCN(c2ccc(Cl)cc2)C1=O (configuration not stated) do in these assays?
HIV TAR-Tat: 0.48

How did CCCCN1CCc2nc(Nc3ccc(OC)cc3OC)ncc2C1 do in these assays?
HIV TAR-Tat: 1.2

Arranged by formula weight (ascending): some entries from above
How did CNC(=O)C1CCN(c2ccc(Cl)cc2)C1=O (configuration not stated) do in these assays?
HIV TAR-Tat: 0.48

What do the screens show for `CCc1cc(C)cc(OCCOc2cccc(/C=C3\SC(N)=NC3=O)c2)c1`?
CDC25B-CDK2 inh: -1.6

What do the screens show for `Cc1cc(N2CCN(c3ccccc3)CC2)n2ncc(-c3ccc(F)cc3)c2n1`?
CDC25B-CDK2 inh: -2.1; HIV TAR-Tat: -0.04

Returning to the listing, repeating the 6 entries before the break.
How did CCS(=O)(=O)n1nc(-c2ccc(Cl)cc2)nc1SC do in these assays?
CDC25B-CDK2 inh: -1.9; HIV TAR-Tat: -1.1

How did O=C1CCN(C(=O)c2cc3c(s2)-c2ccccc2S(=O)(=O)C3)CC1 do in these assays?
CDC25B-CDK2 inh: -1.9; HIV TAR-Tat: 0.38

What do the screens show for `CCc1cc(C)cc(OCCOc2cccc(/C=C3\SC(N)=NC3=O)c2)c1`?
CDC25B-CDK2 inh: -1.6

What do the screens show for `Cc1cc(C)cc(NC(=O)CSc2nc3nc(C)ccc3o2)c1`?
HIV TAR-Tat: 2.5

How did CNC(=O)C1CCN(c2ccc(Cl)cc2)C1=O (configuration not stated) do in these assays?
HIV TAR-Tat: 0.48

How did CCCCN1CCc2nc(Nc3ccc(OC)cc3OC)ncc2C1 do in these assays?
HIV TAR-Tat: 1.2

How did CC(C)C(=O)N1c2nc(C(C)C)nn2C2(CCCCC2)[C@@H]2CCCC[C@@H]21 do in these assays?
CDC25B-CDK2 inh: -0.16; HIV TAR-Tat: 1.8

How did O=C(Cn1c(=O)nc(-c2ccccc2)c2ccccc21)NCc1ccc2c(c1)OCO2 do in these assays?
HIV TAR-Tat: 2.4

How did COC(=O)CSc1nnc(C)c(=O)[nH]1 do in these assays?
CDC25B-CDK2 inh: -0.35&-2.3; HIV TAR-Tat: -1&1.6

Results for CCOC(=O)c1c(NC(=O)c2nn(-c3ccc(F)cc3)ccc2=O)sc(C)c1C ?
CDC25B-CDK2 inh: -0.93; HIV TAR-Tat: 0.49

Results for CCOC(=O)c1c(S(=O)(=O)N2CCCC(C(=O)NC3CC3)C2)c(C)n(C)c1C (configuration not stated) ?
HIV TAR-Tat: 1.8

How did COc1ccc(S(=O)(=O)Nc2ccc3c(c2)N(S(=O)(=O)c2ccc(F)cc2)CCC3)cc1 do in these assays?
HIV TAR-Tat: 1.4

What do the screens show for `Cc1c(C(=O)O)sc2ncnc(Nc3ccc(C(C)C)cc3)c12`?
HIV TAR-Tat: 2.6

Results for CCOc1cc(/C=C2/SC(=S)N(C)C2=O)cc(Br)c1OCc1cccc2ccccc12 ?
CDC25B-CDK2 inh: -2.9

What do the screens show for `CCN(Cc1nc(-c2ccc(C)cc2)no1)S(=O)(=O)c1ccccc1`?
CDC25B-CDK2 inh: -1.5; HIV TAR-Tat: 2.5

How did COc1cc(Cl)c(C)cc1Nc1nc2ccccc2c2nnc(C)n12 do in these assays?
HIV TAR-Tat: 0.92

Results for CCc1ccc(CN2N=NC3C(=O)N(c4ccc(C)cc4)C(=O)C32)cc1 (configuration not stated) ?
CDC25B-CDK2 inh: -2; HIV TAR-Tat: 1.1

How did COc1ccc(C2NC(C(=O)O)CS2)cc1COc1cc(C)c(Cl)c(C)c1 (configuration not stated) do in these assays?
CDC25B-CDK2 inh: -3.3

How did O=C1C2C3c4ccccc4C(CO)(c4ccccc43)C2C(=O)N1c1ccccc1Cl (configuration not stated) do in these assays?
CDC25B-CDK2 inh: -1.1; HIV TAR-Tat: -1.1

Results for O=C(NCc1cccc(Br)c1)c1cnc2sc(N3CCOCC3)nn2c1=O ?
HIV TAR-Tat: 0.59

What do the screens show for `CCc1ccc(-n2nnc(-c3nc(-c4ccccc4)no3)c2N)cc1`?
HIV TAR-Tat: 0.36

How did CC(C)Cn1nc(NS(=O)(=O)c2ccccc2)c2cc3ccccc3nc21 do in these assays?
CDC25B-CDK2 inh: 0.73; HIV TAR-Tat: 1.5

Results for CCC1CCCCN1S(=O)(=O)c1cc2c(cc1Cl)NC(=O)CO2 (configuration not stated) ?
HIV TAR-Tat: -4.2

Results for CCCN(CCC)CCNC(=O)c1nn(C)c2c1CSc1ccccc1-2 ?
CDC25B-CDK2 inh: -2.2; HIV TAR-Tat: 1.8

What do the screens show for `O=C(Nc1nc(-c2ccc(Br)cc2)ns1)c1ccc(F)cc1`?
CDC25B-CDK2 inh: -0.46; HIV TAR-Tat: 0.67

What do the screens show for `COC(=O)C/C(=N\NC(=O)c1ccccc1N)C(=O)OC`?
CDC25B-CDK2 inh: -1.6

How did Cn1cccc1Cc1nnc(SCC(=O)NC2CCCC2)n1-c1ccccc1 do in these assays?
CDC25B-CDK2 inh: -1.2; HIV TAR-Tat: 0.85

Results for Cc1ccc2c(c1)-c1onc(C(=O)N3C(C)CCCC3C)c1CO2 (configuration not stated) ?
HIV TAR-Tat: 2.1

What do the screens show for `Cc1c(N2CCN(C(=O)c3n[nH]c4c3CCCC4)CC2)c(=O)n(C)c(=O)n1C`?
HIV TAR-Tat: 0.54

Results for COc1ccc(NS(=O)(=O)c2csc(C(N)=O)c2)cc1 ?
HIV TAR-Tat: 2

Results for CC1=C(C(=O)OC(C)C)C(c2ccccc2Cl)C2=C(CCCC2=O)N1 (configuration not stated) ?
CDC25B-CDK2 inh: 0.75; HIV TAR-Tat: 1.4

How did COC(=O)C1=C(C)NC2=C(C(=O)CC(c3ccccc3)C2)C1c1ccccc1OC(C)C (configuration not stated) do in these assays?
CDC25B-CDK2 inh: -0.44; HIV TAR-Tat: 3.1

Results for COc1cccc(C=NC2CCN(Cc3ccccc3)CC2)c1OC ?
CDC25B-CDK2 inh: -1.9

Results for Cc1oc2ncnc(NCC(C)C)c2c1C(=O)O ?
CDC25B-CDK2 inh: -0.8; HIV TAR-Tat: 2.4

Results for Cc1nc(-c2ccc(S(=O)(=O)Nc3cc(F)ccc3F)cc2)co1 ?
HIV TAR-Tat: -0.19

What do the screens show for `CCOC(=O)N1CCN(C(=O)C2CC(c3cn(CC)nc3C)=NO2)CC1` (configuration not stated)?
CDC25B-CDK2 inh: -1.8; HIV TAR-Tat: 1

Results for Cn1nc(C(=O)N2CCN(c3ccccc3)CC2)c2c1-c1ccccc1SC2 ?
CDC25B-CDK2 inh: -0.07; HIV TAR-Tat: -0.68

How did CCOc1ccc(S(=O)(=O)Nc2cccnc2)cc1C do in these assays?
CDC25B-CDK2 inh: -0.31; HIV TAR-Tat: -1.3

What do the screens show for `CCOC(=O)C1(C)C(Br)=C(Nc2ccc(Cl)cc2)C(=O)N1c1ccccc1` (configuration not stated)?
CDC25B-CDK2 inh: -0.19; HIV TAR-Tat: 0.45

How did COc1cccc(N2C(=O)c3nccnc3C2=O)c1 do in these assays?
CDC25B-CDK2 inh: -0.96; HIV TAR-Tat: 1.4

What do the screens show for `CC1=C(C(=O)OCc2ccccc2)C(c2ccccc2)C(C#N)=C(N)O1` (configuration not stated)?
CDC25B-CDK2 inh: 0.43

How did CC1(C(=O)NC2CCCC2)Cn2c(nc3ccccc32)C(=O)N1CC1CCCO1 (configuration not stated) do in these assays?
HIV TAR-Tat: 0.84

Results for O=C(c1ccccc1O)N1N=C(C2CCCCC2)CC1(O)C(F)(F)F (configuration not stated) ?
CDC25B-CDK2 inh: -2.4

How did O=C(O)CCc1nnc2ccc(NCc3ccc(F)cc3)nn12 do in these assays?
CDC25B-CDK2 inh: 0.06; HIV TAR-Tat: 2.5

What do the screens show for `Cn1ncc2c(NCc3ccccc3Cl)nc(NCCO)nc21`?
HIV TAR-Tat: 0.57

Results for C=CCOc1ccccc1C1CC(=O)Nc2c1cnn2-c1nc2ccccc2s1 (configuration not stated) ?
HIV TAR-Tat: 3

How did CCOC(=O)Cc1csc2nc3sc(C)c(C)c3c(=O)n12 do in these assays?
CDC25B-CDK2 inh: -3.3

Results for Cc1c(C(=O)NCC2CCCO2)oc2c1-c1nn(Cc3ccc(Cl)cc3)cc1CC2 (configuration not stated) ?
HIV TAR-Tat: 1.9

How did CC(C)c1cc(C(C)C)c(S(=O)(=O)N2CCCC2)c(C(C)C)c1 do in these assays?
CDC25B-CDK2 inh: 0.56; HIV TAR-Tat: 3.1

How did Cc1cc(=O)n2[nH]c(NC(=O)COc3ccc(Cl)cc3)nc2n1 do in these assays?
CDC25B-CDK2 inh: -0.62; HIV TAR-Tat: 2.9

Results for Cn1c(=O)oc2cc(S(=O)(=O)CCC(=O)N3CC=C(c4ccccc4)CC3)ccc21 ?
HIV TAR-Tat: 0.92

What do the screens show for `CCOc1ccc(-n2c(C)nc(Nc3ccccc3)nc2=O)cc1`?
CDC25B-CDK2 inh: -1.3; HIV TAR-Tat: -0.36

How did COc1ccc(-c2cc3nc(C)cc(NC(C)c4ccccc4)n3n2)cc1OC (configuration not stated) do in these assays?
CDC25B-CDK2 inh: 1.7; HIV TAR-Tat: 1.5

Results for COc1cccc(/C=C(\C#N)c2ccc([N+](=O)[O-])cc2)c1OC ?
CDC25B-CDK2 inh: 1.9

How did CN(Cc1nc2ccccc2n1CCCCOc1ccccc1Cl)C(=O)c1ccco1 do in these assays?
CDC25B-CDK2 inh: 0.26; HIV TAR-Tat: 1.2

What do the screens show for `O=C1c2ccccc2-c2onc3c(N4CCCCC4)cc(NCCN4CCCCC4)c1c23`?
CDC25B-CDK2 inh: -0.98; HIV TAR-Tat: 0.61

How did CCOc1cc(C)c(Cl)cc1S(=O)(=O)n1ccnc1 do in these assays?
CDC25B-CDK2 inh: -1; HIV TAR-Tat: 1.8

What do the screens show for `OCCNCc1ccc(OCc2cccs2)cc1`?
CDC25B-CDK2 inh: 0.42; HIV TAR-Tat: 0.26

How did Cc1cc(C)c(NS(=O)(=O)c2ccc(-c3cnc(C4CC4)o3)cc2)c(C)c1 do in these assays?
HIV TAR-Tat: 1.1

Results for Cc1noc2ncnc(N3CCCC(C(=O)NC4CC4)C3)c12 (configuration not stated) ?
HIV TAR-Tat: 0.87

What do the screens show for `COC(=O)c1ccc2c(c1)NC(=O)C(CC(C)C)N2` (configuration not stated)?
HIV TAR-Tat: -0.4

How did CC(=O)Nc1ccc(Sc2ccccc2C(=O)O)c(C(=O)O)c1 do in these assays?
CDC25B-CDK2 inh: -0.79

What do the screens show for `CCC(O)c1nc2ccccc2n1CCOc1c(C)cccc1C` (configuration not stated)?
CDC25B-CDK2 inh: 0.27; HIV TAR-Tat: 0.39

Results for Clc1ccc(-c2noc3ncnc(NC4CC4)c23)cc1 ?
CDC25B-CDK2 inh: -1.2; HIV TAR-Tat: 0.42

Results for CC1C(=O)N2CCCc3cc(S(=O)(=O)N4CCCC4)cc1c32 (configuration not stated) ?
HIV TAR-Tat: 1.5

Results for O=C(NC1CCCC1)c1ccc(CNc2c(NC3CCCCC3)c(=O)c2=O)cc1 ?
CDC25B-CDK2 inh: 1.6; HIV TAR-Tat: -1.3

What do the screens show for `Cc1ccc(NS(=O)(=O)c2c(C)nc3scc(C)n3c2=O)c(Cl)c1`?
CDC25B-CDK2 inh: -0.76; HIV TAR-Tat: 0.59

Results for O=C(Nc1cccc(Br)c1)N1CCSc2ncccc21 ?
HIV TAR-Tat: 0.57

What do the screens show for `Cc1cccc(Oc2nc3ccccc3n3c(=O)[nH]nc23)c1C`?
CDC25B-CDK2 inh: 0.39; HIV TAR-Tat: 0.3

What do the screens show for `O=C1CCSc2ccc(S(=O)(=O)NCc3cccs3)cc2N1`?
HIV TAR-Tat: 0.31

What do the screens show for `COc1ccc(CSc2nc(-c3ccccc3)nc3c2COC(C)(C)C3)cc1`?
CDC25B-CDK2 inh: -1.8; HIV TAR-Tat: 1.1

Results for Cc1cccc(Nc2nc(N3CCCC3)nc(N)c2[N+](=O)[O-])c1 ?
HIV TAR-Tat: 1.4

What do the screens show for `COc1ccc(N2C(=O)C3C(c4ccc(Cl)cc4)OC4(C(=O)c5ccccc5C4=O)C3C2=O)c(OC)c1` (configuration not stated)?
CDC25B-CDK2 inh: -2.4

Results for O=C(Cn1ncc2c([nH]c3ccccc32)c1=O)N1CCN(c2ccccc2F)CC1 ?
HIV TAR-Tat: 0.01

What do the screens show for `Cc1nc2c(c(Nc3ccc(C)c(C)c3)n1)CCC2`?
CDC25B-CDK2 inh: -2.2; HIV TAR-Tat: 0.17

Results for Cc1cc(-c2ccc(S(=O)(=O)Nc3ccc(F)cc3Cl)s2)on1 ?
HIV TAR-Tat: -0.45

How did Nc1ccc2c3c(cccc13)C(=O)NC2=O do in these assays?
CDC25B-CDK2 inh: 2.5

Results for COc1ccc(OC)c(CNc2nc(NCCC(C)C)nc3c2cnn3C)c1 ?
HIV TAR-Tat: 4.2

Screening data deposited in PubChem BioAssay by Center for Chemical Genomics, University of Michigan.
